# Screens deposited in PubChem BioAssay by several laboratories.
# Autofluor counter = compound fluorescence in toxin protease inhibitor counterscreen. 360,000 tested, 3.1% active. fluorescence intensity (test concentration not listed). compound autofluorescence counterscreen, microsphere flow cytometry; active compounds read high;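 active = at least 3 SD above the mean of all compounds, about 16000 in these data; inconclusive = too few beads counted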;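 also: 100 nL of 1 mM stock went into each well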
# Mtb hypoxia rep = Mtb hypoxia fluorescent reporter inhibition. M. tuberculosis hypoxia-regulated fluorescent reporter, fluorescence. fluorescence inhibition, % (test concentration not listed). AID 1159583. 300,000 tested, 0.1% active;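 active = 35 to 45% if threefold the growth effect, above 45% if 1.5-fold the growth effect; inactive = the rest, general growth blockers included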;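 also: wells of about 50 µL received 100 nL stock; 0% = vehicle wells and 100% = reference inhibitor wells; whole bacteria with a GFP reporter of the hypoxia response; strong numbers were not always called active; many hits fall short of the cut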
# PrP 5UTR inh = inhibition of PrP 5' UTR reporter expression | inhibition, % (concentration not given with the values) | cell-based PrP 5' UTR mRNA reporter, plate reader | 340,000 tested, 0.35% active;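 active = every replicate at 50% or more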;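 also: 0 = median of the neutral control wells; tested in H4 reporter cells; numbers are from one replicate; inactives centre near -14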
# ugtP null kill = growth inhibition of S. aureus ugtP deletion strain | S. aureus RN4220 ugtP deletion, OD600 growth, 16 h; some inactives read as strong as hits | growth inhibition, % (test concentration not listed) | 330,000 tested, 0.54% active | AID 1259309;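 active = z-score under -3 and OD600 up to 0.15 on both plates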;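 also: plate controls were untreated wells for no effect and antibiotic for full effect; wells of about 80 µL received 100 nL stock; the first replicate is given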
# Sa RN4220 lethal = kills Staphylococcus aureus RN4220; S. aureus RN4220 growth, OD600, 16 h; inhibition, % (concentration not given with the values); 330,000 tested, 0.33% active;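 active = z-score of -3 or lower and OD600 up to 0.18 on both plates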;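 also: plate controls were untreated cells for no effect and reference antibiotic for full effect; stock transfer was 100 nL into about 80 µL; one replicate is shown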
# BJeLR viability = BJeLR cell viability loss; BJeLR (HRASV12) viability, CellTiter-Glo ATP luminescence, 48 h; reference of the scale not given here; inhibition, % (test concentration not listed); 300,000 tested, 0.17% active; AID 1554;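 active = replicate mean above 50%; inconclusive = above 50% but judged a plate artefact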;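 also: 50 nL library stock added to about 25 µL; numbers are from one replicate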
# Mtb hypoxia rep growth = second read-out of Mtb hypoxia rep, no call of its own (marks repeat the call); growth inhibition, %; measured here: M. tuberculosis growth (absorbance);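 0% = vehicle and 100% = reference antibiotic; read after six days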
# Numbers without * were called inactive; ? = inconclusive; . = no result given. Hits appear at their usual frequency; about 3.9% have a hit in one of these screens.
smiles,ugtP null kill,PrP 5UTR inh,Sa RN4220 lethal,Mtb hypoxia rep,BJeLR viability,Mtb hypoxia rep growth,Autofluor counter
COc1ccc(N2CC(C(=O)Nc3ccc(S(=O)(=O)Nc4nccs4)cc3)CC2=O)c(OC)c1 (stereo unspecified),-1.5,-10.3,0.9,16.2,.,26.2,?
COc1ccc(C)cc1NC(=O)CSc1nnc(-c2cc3cccc(OC)c3o2)n1N,-10.0,-1.1,3.5,.,2.8,.,2884
COc1cc(C=NNC(=O)Cn2nc(C)cc2C)ccc1OC(=O)C1CC1,4.2,-10.1,3.7,7.7,.,11.9,5454
CCCCCc1c(O)nc(SCCN(C)C)[nH]c1=O,5.6,4.1,1.7,13.8,-1.3,4.8,4588
CCC(C)(C)C(=O)Nc1ncc(S(=O)(=O)c2ccc([N+](=O)[O-])cc2)s1,13.6,-15.8,14.0,.,10.5,.,4418
CCN(CC(=O)Nc1cc(C)c(Cl)cc1OC)CC(=O)NC1CCS(=O)(=O)C1 (stereo unspecified),1.6,-67.9,1.7,1.8,.,-2.6,3792
COc1cc(C=NN=C2C(=O)Nc3ccccc32)ccc1O,-6.1,.,6.0,-1.4,.,13.9,.
O=C(C[n+]1ccccc1)NN=Cc1cc(Br)ccc1O,11.4,.,3.9,1.6,.,-1.5,.
CSC(=NCc1cccnc1)NS(=O)(=O)c1cccs1,3.7,-1.6,3.4,-12.4,2.2,-5.0,3221
Cc1cc(Sc2nccn2C)ncc1[N+](=O)[O-],3.9,-14.4,-1.7,-8.0,-0.8,-6.1,2590
O=C(Nc1ccccc1)c1cccc(S(=O)(=O)N2CCCCC2)c1,-7.8,-13.8,1.6,-15.2,-1.8,4.6,?
O=[N+]([O-])c1cccnc1Oc1ccc(C2SCCS2)cc1,15.8,-55.6,-6.9,2.5,-12.3,6.4,3798
COc1cc(CNCCCN2CCOCC2)cc(Br)c1OCC(=O)N1CCCCC1,0.3,-12.3,0.2,3.6,-4.9,7.7,18727*
CN(CCNC(=O)c1ccc(N2CCCC2=O)cc1)CCc1ccccc1,-6.6,-20.1,-15.7,14.0,-2.2,9.9,3806
CC(C)(C)NC(=O)CN1CCN(C(=O)CCl)CC1,2.8,-19.7,-0.6,12.3,.,23.0,3776
O=C1CC(Sc2ncn[nH]2)C(=O)N1c1ccccc1 (stereo unspecified),11.7,-14.5,10.7,12.7,-3.6,2.9,3967
COc1ccc(OCc2nnc(SCC(=O)Nc3ccccc3Cl)o2)cc1,7.5,-20.8,2.4,7.9,-3.7,6.7,3621
COc1cc(C(=S)N2CCOCC2)cc(OC)c1OC(=O)c1cc([N+](=O)[O-])c(C)c([N+](=O)[O-])c1,-1.2,-22.1,2.6,.,-8.4,.,2154
CC(=O)Oc1ccc2oc(=O)c3c(c2c1)CCCN3C(=O)CN1CCOCC1,-0.2,-14.2,4.5,-10.8,3.3,-14.8,4374
COc1ccc2oc(C(=O)N3CCc4ccccc43)c(C)c2c1,-0.5,-2.9,4.3,-6.1,5.0,2.0,5754
CC(Sc1nnc(Cc2cccs2)n1C1CCCCC1)C(=O)N1CCc2ccccc21 (stereo unspecified),-19.5,-8.7,1.6,-2.1,-2.5,-3.7,2793
CCOc1cc(C=NNC(=O)c2ccccn2)ccc1OC(=O)c1ccc(F)cc1,1.9,.,4.5,11.3,.,17.3,.
COc1ccc(Nc2oc(COc3ccc(Cl)cc3)nc2C#N)cc1,-5.2,23.6,1.1,8.7,-3.5,6.3,4659
O=C(Nc1ccc(Nc2ccccc2)cc1)c1ccc(Cl)cc1,8.0,-22.8,-8.9,7.8,-1.1,5.0,5782
O=C(Nc1ccc(CN2CCOCC2)cc1)c1cc2ccccc2o1,2.1,-113.3,1.4,0.0,-5.4,8.4,8083
CCOc1ccc(NC(=O)CSc2nc(NS(=O)(=O)c3ccc(C)cc3)cc(=O)[nH]2)cc1,8.0,-14.6,1.8,10.0,-3.7,18.6,3476
Cc1cccc(NC(=O)Cn2cc(C(=O)C3CC3)c3ccccc32)c1C,-1.5,10.5,1.9,4.1,-0.9,-3.8,4300
CCOC(=O)C1=C(COC(=O)/C=C/c2cccc([N+](=O)[O-])c2)NC(=O)NC1C (stereo unspecified),-15.8,-3.1,-1.5,-7.6,-3.7,5.4,6282
Cn1ncc(Cl)c1C(=O)N1CCN(C23CC4CC(CC(C4)C2)C3)CC1,0.8,-6.9,-2.1,-2.8,-9.9,0.9,4081
COc1cccc(C2C3=C(CC(C)(C)CC3=O)OC(N)=C2[N+](=O)[O-])c1 (stereo unspecified),11.8,-1.8,8.5,-3.1,3.0,-2.9,7068
O=C(CN1CCC(C(=O)c2ccc3c(c2)OCCO3)CC1)Nc1ccccc1C(F)(F)F,18.9,-16.1,2.7,4.4,-4.8,5.1,3919
O=C(Cc1cccs1)NCc1ccccc1Br,-5.8,-25.3,0.9,2.4,7.3,22.8,3617
Cc1ccc(S(=O)(=O)NCc2ccc(C(=O)NCCc3ccc(S(N)(=O)=O)cc3)cc2)cc1,3.6,-14.3,4.0,-0.2,1.0,9.4,3558
CC(=O)c1ccc(N2CCN(C(=S)Nc3cccc(Cl)c3)CC2)cc1,0.8,-9.6,3.7,-4.6,-12.1,-5.5,2310
CC1CN(C(C)CO)C(=O)c2cccc(NC(=O)C3CCCCC3)c2OC1CN(C)Cc1ccncc1 (stereo unspecified),-6.0,.,2.6,16.3,.,12.1,.
Oc1ccc(C=Nn2cc(-c3ccccc3)[nH]c2=S)cc1,-4.7,.,11.8,12.8,.,9.0,.

# Some of these compounds in order of heavy-atom count, falling:
smiles,ugtP null kill,PrP 5UTR inh,Sa RN4220 lethal,Mtb hypoxia rep,BJeLR viability,Mtb hypoxia rep growth,Autofluor counter
Cc1ccc(S(=O)(=O)NCc2ccc(C(=O)NCCc3ccc(S(N)(=O)=O)cc3)cc2)cc1,3.6,-14.3,4.0,-0.2,1.0,9.4,3558
CCOc1ccc(NC(=O)CSc2nc(NS(=O)(=O)c3ccc(C)cc3)cc(=O)[nH]2)cc1,8.0,-14.6,1.8,10.0,-3.7,18.6,3476
CC(=O)c1ccc(N2CCN(C(=S)Nc3cccc(Cl)c3)CC2)cc1,0.8,-9.6,3.7,-4.6,-12.1,-5.5,2310

# (list continues)
smiles,ugtP null kill,PrP 5UTR inh,Sa RN4220 lethal,Mtb hypoxia rep,BJeLR viability,Mtb hypoxia rep growth,Autofluor counter
Cc1ccccc1-n1nc2c(c1NC(=O)COc1ccc(Cl)cc1)CS(=O)C2 (stereo unspecified),8.1,-16.6,3.7,3.7,2.5,-0.9,5267
Cc1ccc(S(=O)(=O)N2CCCC2C(=O)NCc2ccc3c(c2)OCO3)cc1 (stereo unspecified),10.2,14.5,5.1,-1.5,-7.5,-3.3,3084
CCOC(=O)C1CCN(Cc2cccc(OCc3ccccc3)c2)CC1,6.5,-10.6,1.9,1.0,-6.6,-1.0,4017
O=C(Nc1c2c(nn1-c1ccccc1)CS(=O)(=O)C2)c1cccs1,10.9,3.6,5.0,-0.8,-3.3,-4.9,4413
COc1ccc(NC(=O)NN2CCN(C)CC2)c(OC)c1,-6.3,2.9,-0.7,2.1,-1.4,-3.4,5283
COCCn1c(=O)[nH]c2cc(C(=O)N3CCN(Cc4ccc5c(c4)OCO5)CC3)ccc2c1=O,5.9,-1.0,1.6,12.8,.,0.6,4563
CN(C)S(=O)(=O)N1CCc2ccccc21,2.5,-24.9,-0.1,.,-12.3,.,4560
NC(Cc1ccc([N+](=O)[O-])cc1)=NOC(=O)COc1cccc2ccccc12,-3.9,.,2.2,0.0,.,7.7,.
O=C(CCNc1n[nH]c(=O)[nH]c1=O)N/N=C\c1ccc(Br)cc1,.,-6.3,.,.,-1.8,.,3299
CCCC(=O)Nc1cc2c3c(c1)C(C)C(=O)N3CCC2 (stereo unspecified),-2.0,1.6,2.6,-2.9,1.1,1.9,5729
CC(=O)c1c(C)[nH]c(C(=O)CN2C(=O)NC(C)(c3ccc4c(c3)OCCO4)C2=O)c1C (stereo unspecified),2.9,-16.8,-0.8,-3.0,-2.0,-4.9,5568
Brc1ccc(-c2nnc3n2C2(CCCC2)Cc2ccccc2-3)o1,-13.7,12.3,4.1,4.8,0.0,8.1,4451
CCOC(=O)C1CN(S(=O)(=O)c2ccc(C)cc2)c2cc(S(=O)(=O)CC)ccc2O1 (stereo unspecified),-1.2,-24.8,-0.6,5.1,6.8,20.9,4163
Cc1ccc(CNC(=O)c2ccc(NS(=O)(=O)c3c(C)noc3C)cc2)cc1,24.2,-19.4,2.7,-1.8,3.5,7.6,2417
CCCCC1CCC(c2ccc(C(N)=O)cc2)CC1 (stereo unspecified),20.0,-30.0,1.5,7.4,2.9,-0.9,1973
O=C1C2CCCN2C(c2cccnc2)N1c1nccs1 (stereo unspecified),1.1,-3.5,3.5,2.7,1.4,0.6,4140
Cn1c(SCC(=O)NC2(C#N)CCCCC2)nnc1-c1cccnc1,9.1,-4.1,-0.5,7.2,-2.5,1.0,6340
CS(=O)(=O)N(CC(=O)NCCSC1CCCCC1)c1ccccc1,4.0,-1.9,4.5,22.0,-4.7,2.4,4515
CC(=O)C1C(=O)c2c(cccc2[N+](=O)[O-])C1=Nc1ccccc1C (stereo unspecified),3.2,.,6.0,2.7,-9.6,14.3,.
CCN1CCN(CCNC(=O)c2cn(C(C)c3ccccc3F)nn2)CC1 (stereo unspecified),1.5,0.1,-0.6,.,2.0,.,4804
Cc1cc(C)nc(Sc2c(C)nn(-c3ccccc3)c2C)n1,-3.3,-4.0,3.0,.,3.4,.,2898
Cc1ccc(C(=O)c2oc3nc(C)cc(C)c3c2N)cc1,-1.1,-6.8,2.2,2.9,2.2,3.9,5983
COc1ccc2c3n([n+]([O-])c2c1)CCN=C3c1cc(Cl)c(N)c(Cl)c1,4.8,-4.5,15.9,14.2,.,13.7,3137
Cc1ccnc(NC(=O)c2cccs2)c1,-5.1,-64.7,-7.2,15.8,7.3,10.4,3241
COc1ccc(NC(=O)C2COc3ccccc3O2)cc1 (stereo unspecified),2.1,-74.5,0.4,8.5,-3.6,5.5,4061
C/C(CCC(C)C)=N\NC(=S)NCc1ccccc1,.,-26.8,.,.,-1.0,.,4732
Cc1nnc(C)n1N1C(=O)c2cccc3cccc(c23)C1=O,10.5,-18.3,3.9,0.9,-2.4,0.1,11092
Cc1cc([N+](=O)[O-])cc([N+](=O)[O-])c1NCC(C)C,-1.6,-12.8,8.7,3.3,-3.2,3.1,3476
Cc1ccc(S(=O)(=O)Nc2cc3c(cc2C#N)OCO3)cc1C(N)=O,2.2,-0.9,5.2,-6.6,-2.3,1.6,3793
O=C1Nc2c(c(=O)[nH]c(=O)n2-c2ccc(F)cc2)C1(NS(=O)(=O)c1ccccc1)C(F)(F)F (stereo unspecified),10.5,-12.8,2.1,-9.7,-9.2,7.6,5991
Cn1ncc(C(=O)N=S(C)(=O)c2ccccc2)c1[N+](=O)[O-] (stereo unspecified),-2.4,23.8,1.5,-12.4,4.7,5.4,4897
O=C(NCCCN1CCOCC1)c1ccc(CNS(=O)(=O)c2ccc(F)cc2)cc1,9.6,-8.1,6.2,5.6,-0.4,3.2,16290*
O=C(c1ccco1)N1CCCC(c2ccccc2)C1 (stereo unspecified),4.0,-12.1,1.7,8.1,4.8,8.4,4599
COc1ccccc1CNC(=O)C1CC(=O)N(c2ccc(C)c(C)c2)C1 (stereo unspecified),3.2,-12.0,1.3,10.7,-0.7,14.0,4382
COc1ccccc1CNC(=S)Nc1ccc(F)cc1,6.1,-36.6,5.4,13.6,-1.5,6.5,3566
O=C(NCc1ccc2[nH]c3c(c2c1)CCCC3)c1ccc(S(=O)(=O)N2CCOCC2)cc1,17.0,0.6,3.0,4.7,7.8,4.7,4874
c1ccc(Sc2ncnc3c2oc2ccccc23)cc1,-20.3,-13.4,3.9,5.8,-2.2,9.4,3686
CC(C)(C)OC(=O)N1CCC(c2c(C(=O)O)cnn2-c2ccccc2)CC1,6.1,.,9.1,1.3,1.5,2.9,8246
CCO[C@@H]1OC(C(=O)O)=C[C@H](c2cn(C(C)=O)c3ccccc23)[C@H]1CCCO,.,-0.8,.,.,3.2,.,3070
